MbtI inh = inhibitors of Mycobacterium tuberculosis siderophore enzyme MbtI | actives 0.89% (n = 100,000) | P9WFX0 | purified MbtI enzyme, fluorescence intensity read-out | inhibition, %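 (about 17 µg/mL by stock and volumes)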;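 active means above 50% in both replicates, above 80% if mildly self-fluorescent; inactive means the rest, strongly fluorescent compounds included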;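 further: 0% = mean of negative and 100% = mean of positive controls; one replicate is shown; some compounds called inactive have numbers as strong as hits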
Target sequence (P9WFX0 whole entry, looked up): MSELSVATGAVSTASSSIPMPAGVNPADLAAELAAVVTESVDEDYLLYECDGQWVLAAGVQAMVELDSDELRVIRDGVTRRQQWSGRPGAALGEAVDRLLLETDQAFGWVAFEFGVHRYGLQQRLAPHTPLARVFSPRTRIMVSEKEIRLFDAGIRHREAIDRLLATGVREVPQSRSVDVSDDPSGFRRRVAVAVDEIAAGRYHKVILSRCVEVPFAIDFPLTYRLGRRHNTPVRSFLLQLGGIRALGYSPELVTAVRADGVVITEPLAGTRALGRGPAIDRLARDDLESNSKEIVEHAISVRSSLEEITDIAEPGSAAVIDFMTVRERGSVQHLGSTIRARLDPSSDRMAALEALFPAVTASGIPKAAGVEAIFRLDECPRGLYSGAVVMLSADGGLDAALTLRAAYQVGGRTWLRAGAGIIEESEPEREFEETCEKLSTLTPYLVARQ
PV pol inh = poliovirus RNA polymerase inhibition. % elongation, % (compound at 16.7 µg/mL). poliovirus polymerase elongation, fluorescence polarization; active compounds read low. actives 0.66% (n = 150,000). P03300. AID 588519; in the data active means % elongation below about 90%; further: some results filed as inactive read as strong as hits
Mtb MenB inh = inhibitors of Mycobacterium tuberculosis MenB enzyme; MenB enzyme assay, absorbance read-out; some hits fall short of the stated cut; AID 540299; P9WNP5; inhibition, %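 (about 12 µg/mL by stock and volumes)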; actives 0.43% (n = 100,000);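 active means mean of two replicates above 30%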;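 further: 0% = no compound and 100% = wells with inactive enzyme; the first replicate is given; strong numbers were not always called active; inactives centre near -10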
Target sequence (P9WNP5 whole entry, looked up): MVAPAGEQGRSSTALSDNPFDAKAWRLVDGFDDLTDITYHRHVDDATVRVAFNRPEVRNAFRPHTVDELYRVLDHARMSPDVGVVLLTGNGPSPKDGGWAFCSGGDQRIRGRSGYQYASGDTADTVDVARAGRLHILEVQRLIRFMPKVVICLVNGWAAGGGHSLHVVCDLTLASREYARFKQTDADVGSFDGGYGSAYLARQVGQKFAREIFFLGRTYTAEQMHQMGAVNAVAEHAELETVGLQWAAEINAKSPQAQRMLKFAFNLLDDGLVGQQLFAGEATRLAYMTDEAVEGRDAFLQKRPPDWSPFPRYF
PV pol inh intensity = also measured in PV pol inh; calls as there; % elongation; measured here: total intensity read-out; formula for this scale not given here;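 total fluorescence in place of polarization; lower means less elongation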
* hit, by the source's call; i = inactive; . = not tested or not shown.

SMILES | MbtI inh | PV pol inh | PV pol inh intensity | Mtb MenB inh
CC(CNc1nc2ccccc2n2cnnc12)c1ccccc1 (stereo not drawn) | -1 | 101 | 114 | -17
O=C(NCc1ccco1)OCC(F)(F)F | 19 | 98 | 95 | 8
N/C(=N\O)c1c(-c2ccccc2)cc(-c2ccc(F)cc2)[nH]c1=O | -10 | 104 | 106 | 0
CN(C(=O)COC(=O)C1COc2ccccc2O1)C1CCCCC1 (stereo not drawn) | -8 | 99 | 106 | -12
N#C/C(=C\Nc1cccc(C(F)(F)F)c1)C(=O)N1CCOCC1 | -24 | 101 | 104 | -4
COC(=O)CC1NC(=O)NC1=O (stereo not drawn) | 3 | 100 | 105 | 5
NC(=O)c1cc(S(=O)(=O)NCCN2CCCCCC2)cs1 | -17 | 101 | 103 | 8
N#CC(C(=O)c1ccc(S(=O)(=O)N2CCCC2)cc1)c1nc2ccccc2[nH]1 (stereo not drawn) | 98 | 106 | 106 | -26
CN(C)S(=O)(=O)c1ccc(N2CCCC2)c(C(=O)OCc2nc3ccsc3c(=O)[nH]2)c1 | 11 | 105 | 105 | -20
NS(=O)(=O)c1ccc(NC(=O)COc2ccc(F)cc2)cc1 | . | 105 | 104 | -6
Cc1noc(C)c1COC(=O)c1ccc2ccccc2c1 | 136 | 101 | 98 | 6
CNC(=O)C(C)OC(=O)C1CCN(C2=NS(=O)(=O)c3ccccc32)CC1 (stereo not drawn) | -10 | 103 | 108 | -12
CNC(=O)NCCc1ccc(Cl)cc1 | -6 | 99 | 102 | -5
CCOCCOc1nc(C)cc(C)c1C#N | 10 | 100 | 102 | 6
Cc1nn(Cc2ccccc2)c(C)c1C(=O)OCc1cccc(S(=O)(=O)N(C)C)c1 | -1 | 101 | 106 | -22
O=C1c2ccccc2C(=O)N1CC(O)COc1ccc(Cl)cc1Cl (stereo not drawn) | 3 | 100 | 102 | -36
O=C(N/N=C1\SCC(=O)N1CCc1ccccc1)c1cccs1 | -3 | 105 | 102 | -56
CC1C/C(=N/NC(=O)C2CC2)CC(C)(C)C1 (stereo not drawn) | -1 | 102 | 102 | -25
COc1cc(NC(=O)CN2C(=O)CCC2=O)cc(OC)c1OC | -3 | 98 | 107 | 2
COc1ccc(C(=O)COC(=O)C2Cc3ccccc3CN2S(C)(=O)=O)cc1 (stereo not drawn) | 1 | 103 | 111 | -1
CCOC(=O)c1cn2nc(N3CCCCC3)ccc2n1 | 3 | 105 | 101 | -2
c1ccc(N=c2scc(-c3ccccc3)n2Cc2ccco2)cc1 | -3 | 101 | 104 | -18
CCCN1C(=O)c2ccccc2NC1c1ccc(C)cc1 (stereo not drawn) | i | 101 | 100 | 2
Cc1nnc(NC(=O)c2ccc(F)cc2F)o1 | -9 | 101 | 102 | 1
C=CCN1C(=O)CC(=O)NC1=S | -2 | 102 | 101 | -205
CCOc1ccc(/C=C/C(=O)Nc2ccc3[nH]c(=O)[nH]c3c2)cc1 | -7 | 104 | 102 | -12
O=C(COC(=O)c1c2c(nc3ccccc13)CCC2)NC1CC1 | 11 | 101 | 98 | .
O=C(CC1SC(=O)NC1=O)Nc1ccccc1NC(=O)CC1SC(=O)NC1=O (stereo not drawn) | -7 | 102 | 103 | -15
CN1c2ccccc2C(=O)NC1c1ccc(Cl)c(Cl)c1 (stereo not drawn) | 104 | 105 | 108 | -3
O=C1C(c2ccc(F)cc2)N(CC2COc3ccccc3O2)C(=O)CN1C1CCCCC1 (stereo not drawn) | -18 | 98 | 102 | 0
O=C(CCCc1ccccc1)Nc1ncn[nH]1 | -7 | 100 | 99 | -1
COC(CNC(=O)c1cc2c(=O)[nH]c3ccc(C)cc3c2s1)OC | 108 | 101 | 103 | -2
CC1(C)C(C(=O)NN2C(=O)c3ccccc3C2=O)C1(C)C | . | 91 | 93 | -12
O=C1CN(C(=O)CCCOc2cccc(Br)c2)c2ccccc2N1 | 1 | 107 | 115 | 3
CN1CCN(c2ccc(CNS(=O)(=O)c3cn(C)cn3)cc2)CC1 | -2 | 101 | 102 | -1
O=C(Nc1nc(-c2ccc(S(=O)(=O)N3CCCC3)cc2)cs1)c1cccs1 | -15 | 101 | 102 | -6
COc1ccc(NC(=O)c2ccc(CN3CCS(=O)(=O)CC3)cc2)cc1 | 0 | 104 | 108 | -3
O=C(Cn1cnnn1)N(Cc1ccco1)Cc1cccs1 | 8 | 107 | 109 | -25
O=C1c2cccnc2C(=O)N1CCc1ccc(S(=O)(=O)N2CCCc3ccccc32)cc1 | -2 | 101 | 102 | 11
Cc1ccc(-c2cc(/C=C3/C(=O)C=Cc4ccccc43)c(O)o2)cc1 | . | 71 | 245 | -10
CC(C(=O)NCC1CCCCC1)N1CC=C(c2ccccc2)CC1 (stereo not drawn) | -5 | 107 | 111 | 4
CC(C)(C)c1ccc(/C=C2\CCCC(=C3SCCCS3)C2=O)c2c1OCO2 | . | 103 | 106 | -55
COc1ccc2oc(C(F)(F)C(F)(F)C(F)(F)C(F)F)cc(=O)c2c1 | 3 | 103 | 103 | -14
COc1ccc(CCC(C(O)C(F)(F)F)S(=O)c2ccccc2)cc1 (stereo not drawn) | 3 | 103 | 107 | .
O=C(CSc1nnc(Nc2ccccc2F)s1)Nc1ccc2c(c1)OCCCO2 | 0 | 106 | 114 | -21
Cc1ccc2c(c1)NC(C1=NS(=O)(=O)c3ccc(C)cc3N1)=NS2(=O)=O | 4 | 102 | 102 | -20
COCCn1c(C)cc(C(=O)COC(=O)CCc2nc3ccccc3s2)c1C | -11 | 105 | 115 | -21
CC(Oc1ccc(Cl)cc1Cl)C(=O)Nc1nc2c(s1)C(=O)CC(C)(C)C2 (stereo not drawn) | -9 | 103 | 105 | -38
O=C1NC(=Nc2ccccc2)S/C1=C/C=C/c1ccco1 | 1 | 106 | 110 | -164
CCc1ccc(NC(=O)C2CCCN2S(=O)(=O)c2ccc3c(c2)C(C)(C)C(=O)N3C)cc1 (stereo not drawn) | -5 | 102 | 97 | -28
O=C(CSc1nnc(-c2ccccc2)n1Cc1ccco1)c1ccc2c(c1)OCO2 | 2 | 111 | 109 | -21
CCOC(=O)c1sc(N)c(C#N)c1COC(=O)C1Cc2ccccc2CN1S(C)(=O)=O (stereo not drawn) | -74 | 43 | 230 | -8
O=C(NN1C(=O)c2ccccc2NC1c1ccccn1)c1ccccc1 (stereo not drawn) | 71 | 102 | 107 | -31
CS(=O)(=O)Nc1ccc(C(=O)NCCc2ccccc2)cc1 | -28 | 101 | 100 | -11
Cc1ccc(CNC(=O)c2cn(C)c3ccc(S(=O)(=O)N(C)C)cc3c2=O)cc1 | -4 | 99 | 103 | -22
CN(CC1COc2ccccc2O1)C(=O)C1CCN(c2ccc(-c3cccs3)nn2)CC1 (stereo not drawn) | -3 | 102 | 97 | -25
CC(C)C(=O)Oc1cc(-c2ccccc2)c2oc(=O)sc2c1 | -10 | 102 | 107 | -16
O/N=C\c1ccc(-c2ccc(Cl)cc2)o1 | -57 | 100 | 102 | 4
Cc1ccc(C(=O)NN2C(=O)CSC2=S)cc1 | 8 | 105 | 103 | -75
CCn1ncc(Br)c1C(=O)Nc1nccs1 | -3 | 102 | 101 | -12

Entries listed so far with an aryl methoxy group:
SMILES | MbtI inh | PV pol inh | PV pol inh intensity | Mtb MenB inh
COc1cc(NC(=O)CN2C(=O)CCC2=O)cc(OC)c1OC | -3 | 98 | 107 | 2
COc1ccc(C(=O)COC(=O)C2Cc3ccccc3CN2S(C)(=O)=O)cc1 (stereo not drawn) | 1 | 103 | 111 | -1
COc1ccc(NC(=O)c2ccc(CN3CCS(=O)(=O)CC3)cc2)cc1 | 0 | 104 | 108 | -3
COc1ccc2oc(C(F)(F)C(F)(F)C(F)(F)C(F)F)cc(=O)c2c1 | 3 | 103 | 103 | -14
COc1ccc(CCC(C(O)C(F)(F)F)S(=O)c2ccccc2)cc1 (stereo not drawn) | 3 | 103 | 107 | .

A second format for part of the listing above.
mol: NS(=O)(=O)c1ccc(NC(=O)COc2ccc(F)cc2)cc1
  MbtI inh: .; PV pol inh: 105; PV pol inh intensity: 104; Mtb MenB inh: -6
mol: Cc1noc(C)c1COC(=O)c1ccc2ccccc2c1
  MbtI inh: 136; PV pol inh: 101; PV pol inh intensity: 98; Mtb MenB inh: 6

Following part:
SMILES | MbtI inh | PV pol inh | PV pol inh intensity | Mtb MenB inh
CCOC(=O)c1cnn(Cc2ccccc2)c1N | -26 | 101 | 100 | -10
Cn1cccc1C(=O)C(F)(F)F | -5 | 103 | 107 | -19
Cc1cc(C)cc(NC(=O)CCCC(=O)Nc2cc(C)cc(C)c2)c1 | . | 100 | 93 | -20
Cc1oc(C(C)(C)C)cc1C(=O)NC1CCN(Cc2ccccc2)CC1 | 3 | 102 | 100 | -2
O=C(NCCc1ccccc1)c1ccc(CS(=O)Cc2cccc(Cl)c2)o1 (stereo not drawn) | 7 | 102 | 101 | -7
OCc1cc(Br)cc(CO)c1O | -1 | 110 | 113 | -22
Cc1ccc(NC2=Nc3ccccc3CS2)cc1 | -10 | 104 | 108 | -6
NC(=O)COc1ccc2oc3ccccc3c2c1 | 28 | 99 | 92 | -20
O=C(CNS(=O)(=O)c1ccccc1)OCc1csc(-c2ccccc2)n1 | -19 | 106 | 109 | -35
O=C(c1ccco1)N1CCC2(CC1)OCCO2 | -12 | 104 | 98 | -19
O=C(CCN1C(=O)S/C(=C\c2cccs2)C1=O)NCc1ccco1 | -1 | 105 | 104 | -16
O=C1OCCC1Sc1nc2ccccc2n1Cc1ccccc1 (stereo not drawn) | -4 | 103 | 103 | -20
C/C(NNc1ccccc1)=C(/C#N)C(N)=S | 12 | 101 | 96 | -13
CCOC(=O)c1sc(SC)c2c1CCc1cnc(SC)nc1-2 | 2 | 103 | 108 | 3
CC(=O)OC(C(=O)N1CCN(c2ccccc2F)CC1)c1ccccc1 (stereo not drawn) | 3 | 101 | 101 | 11
CSc1nnc(-c2ccc(C(F)(F)F)nc2C)o1 | 85 | 100 | 103 | -3
O=c1nc(-c2ccccc2)cn[nH]1 | 17 | 102 | 101 | -15
Oc1ccc2oc3c(c2c1)CCCC3 | 20 | 101 | 101 | 8
C(=N\N=C(c1ccccc1)C12CN3CN(CN(C3)C1)C2)/c1ccccc1 | 6 | 99 | 100 | -10
Cc1ccc(OCC(=O)NC2CCC(C)CC2)cc1C (stereo not drawn) | -1 | 104 | 104 | -9

Entries of single compounds, looked up by structure:
Cc1cc(C)cc(NC(=O)CCCC(=O)Nc2cc(C)cc(C)c2)c1 is listed with MbtI inh: .; PV pol inh: 100; PV pol inh intensity: 93; Mtb MenB inh: -20
CSc1nnc(-c2ccc(C(F)(F)F)nc2C)o1 is listed with MbtI inh: 85; PV pol inh: 100; PV pol inh intensity: 103; Mtb MenB inh: -3

Next part.
SMILES | MbtI inh | PV pol inh | PV pol inh intensity | Mtb MenB inh
CCN=C1SC(CC(=O)Nc2ccccc2)C(=O)N1CC (stereo not drawn) | 2 | 101 | 101 | -20
O=c1[nH]oc2c1CCNC2 | -2 | 99 | 101 | -15
Cc1ccc(N2C(=O)C3C4C=CC(CNC(=S)NCc5ccccc5)(O4)C3C2=O)cc1 (stereo not drawn) | 0 | 105 | 109 | -46
Cc1[nH]c2ccccc2c1C(=O)CSc1ncnc2ccccc12 | 3 | 104 | 107 | .
CCn1c(=O)c2ccccc2c2c(O)nc(-c3ccccc3)n21 | 11 | 108 | 122 | -22
COc1cc(OC)c(C(=O)N2CCCN(C)CC2)cc1OC | -21 | 104 | 104 | -11
OC(OCC1Cc2ccccc2O1)C1Cc2ccccc2O1 (stereo not drawn) | . | 103 | 107 | -15
O=C(CSCc1ccco1)c1cc2ccccc2o1 | 30 | 100 | 106 | .
COC(=O)COc1ccc(S(=O)(=O)N2CCCCC2)cc1C | 5 | 100 | 103 | 10
C[C@H](N)[C@H](O)c1ccc(O)c(O)c1 | -11 | 101 | 103 | -4
O=C(O)CCC(=O)Nc1ccc(C(=O)N2CCCCC2)cc1 | . | 105 | 109 | -2
N#Cc1ccc(CSc2nc3ccccc3s2)cc1 | -6 | 102 | 108 | -8
Cc1nnc(SCC(=O)c2ccc3c(c2)NC(=O)CO3)n(N)c1=O | 4 | 100 | 94 | 12
COc1cccc(NC(=O)CN(C)CC(=O)Nc2cccc(C#N)c2)c1 | -14 | 106 | 109 | -32
CCOC(=O)C1=C(C)NC(=O)NC1c1ccc(OCC(=O)N/N=C/c2ccc(N(C)C)cc2)c(OC)c1 (stereo not drawn) | 117 | 103 | 103 | -5
CCCNS(=O)(=O)c1ccc(-c2ccc(=O)[nH]n2)o1 | 70 | 101 | 103 | -5
c1ccc2c(c1)CCN(Cn1cnc3ccccc31)C2 | -6 | 101 | 107 | -27
CCCCS(=O)(=O)N1CCOCC1 | -8 | 101 | 101 | -19
CC1CCN(C(=O)Oc2ccccc2)CC1 | -2 | 102 | 98 | -33
CC1CCCCC12NC(=S)N(c1ccc(Cl)cc1)N2 (stereo not drawn) | 51 | 102 | 103 | 4
Cc1ccccc1Oc1ccc(-c2nc(N)nc(N)n2)cc1 | -14 | 103 | 102 | -5
CCc1ccc(-c2cc(C(=O)OC)c3ccccc3n2)cc1 | . | 106 | 106 | -5
Cc1c2cnn(-c3ccccc3)c(=O)c2c(C)n1CCCC(=O)N1CCOCC1 | 0 | 104 | 104 | -12
CC(=O)NCCOc1ccc(C2CCCCC2)cc1 | . | 106 | 112 | -13
Nc1nnc(SCC2=CC(=O)N3C=CSC3N2)s1 (stereo not drawn) | -12 | 102 | 102 | -9
COC(=O)c1ccc(COC(=O)C2CCN(c3ccc(C(F)(F)F)cn3)CC2)cc1 | 31 | 104 | 109 | -31
CN1/C(=N\O)c2cccc3cccc1c23 | 81* | 96 | 103 | -70
CCCN1C(=O)/C(=C/c2c(N3CCCC3)nc3ccccn3c2=O)SC1=S | 1 | 82 | 213 | 11

Screens as filed in PubChem BioAssay.
